BJeLR viability: lowers viability of BJeLR cells; BJeLR fibroblasts viability, CellTiterGlo ATP luminescence, 48 h; HRASV12, hTERT and SV40 LT/ST transformed; viability loss activity score, % (no concentration beside the values); 30,000 tested, 0.64% active; AID 2275; in the data active means viability loss activity score above about 50%; about a fifth of its hits are not listed in these tables;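 further: higher score means fewer live cells and less ATP luminescence; stock transfer was 50 or 100 nL into about 30 µL; 0% = vehicle wells and 100% = a reference killing control; one replicate is shown; the record names a cut of 85%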
A1 inh: A1 inhibition | 21,000 tested, 0.51% active | caspase activation, % (test concentration not listed) | MEF A1-2A-BIM cells, caspase-Glo luminescence, 3 h; percent of clofoctol signal, DMSO as zero;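 active means most replicate scores above 10, or exactly half above 10 with mean activity above 10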;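 further: effector caspase 3 and 7 activity cleaving a DEVD luciferin substrate; 50 nL library stock added to about 30 µL; numbers are from one replicate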
Active calls of the source: *; · = not tested or not shown.

Below each SMILES – BJeLR viability | A1 inh
CN1CC(=O)NC1=NC(=O)C1CCCN(S(=O)(=O)c2ccc3c(c2)oc(=O)n3C)C1 (stereo not given)
→ 0.0 | ·
C[C@@H]1CN([C@H](C)CO)C(=O)c2cc(N(C)C)ccc2O[C@@H]1CN(C)C(=O)Nc1ccc(F)cc1
→ 0.5 | 0.9
CCCCC/C=C\C/C=C\C(O)CCCCCCC(=O)O (stereo not given)
→ -2.7 | -0.3
COc1ccc(S(=O)(=O)Nc2cccc3c2O[C@@H](CN(C)Cc2ccc(-c4ccccc4)cc2)[C@@H](C)CN([C@H](C)CO)C3=O)cc1
→ -5.3 | ·
COc1cc(NC(N)=S)c(OC)cc1Cl
→ 13.1 | 0.5
Cc1nc2ccc(S(=O)(=O)NCC(=O)N3CCCC3)cc2s1
→ 2.3 | -0.2
O=C(Nc1ccncc1)c1cccc(COc2ccc3ccccc3c2)c1
→ 12.1 | ·
Cn1c(SCc2ccc3c(c2)OCO3)nnc1-c1ccccc1
→ 1.3 | -2.2
C[C@H](CO)N1C[C@H](C)[C@H](CN(C)C(=O)Nc2ccccc2)Oc2c(NS(C)(=O)=O)cccc2C1=O
→ 0.0 | ·
C[C@@H]1CN([C@H](C)CO)C(=O)c2cc(NC(=O)c3ccncc3)ccc2O[C@H]1CN(C)S(=O)(=O)c1ccc(F)cc1
→ -1.4 | 0.4
C=CCN(CC=C)C(=O)C1c2ccccc2Oc2ccccc21
→ 1.4 | -0.7
COc1cc(C(=O)n2c(SCc3ccc(F)cc3)nc3ccccc32)cc(OC)c1OC
→ 3.7 | -6.3
Cc1ccc2cc(C3CC(c4ccco4)=NN3S(C)(=O)=O)c(=O)[nH]c2c1 (stereo not given)
→ -0.4 | -0.2
CCn1c(=O)cc(OCC(=O)Nc2cccc(OC)c2)c2ccccc21
→ 3.2 | ·
COC(=O)c1sc(C(=O)OC)c2c1OCCO2
→ -0.3 | 0.0
COc1cc2oc(=O)ccc2cc1CC(O)C(C)(C)O (stereo not given)
→ -0.4 | -0.4
COc1ccc(C2NC(c3ccc(OC)cc3)C(C)C(=O)C2C)cc1 (stereo not given)
→ -2.1 | ·
C[C@@H]1CN([C@@H](C)CO)C(=O)c2cccc(NC(=O)C3CCCCC3)c2O[C@@H]1CN(C)CC1CC1
→ -3.2 | ·
CCSc1nnc2n(CC)c3ccccc3n12
→ -2.9 | ·
COc1ccc2cc3cc(C(=O)NCc4cccs4)sc3nc2c1
→ 12.3 | ·

Continued:
Below each SMILES – BJeLR viability | A1 inh
COc1ccccc1/C=C1/C(=O)ON=C1C
→ 13.2 | 5.0
C[C@H](CO)N1C[C@H](C)[C@@H](CN(C)S(C)(=O)=O)Oc2c(NC(=O)c3ccc(-c4nccs4)cc3)cccc2C1=O
→ 1.5 | ·
CC(=O)Nc1cccc(Oc2ccc3c(c2)C(=O)N(c2ccc(Oc4ccc(C)c(C)c4)cc2)C3=O)c1
→ 0.0 | -0.8
C[C@H](CO)N1C[C@H](C)[C@@H](CN(C)Cc2ccc(Oc3ccccc3)cc2)Oc2ccc(NS(=O)(=O)c3ccc(F)cc3)cc2C1=O
→ 0.3 | -0.2
CCOC(=O)N1CCN(C(=O)CCn2nc(-c3ccc(Cl)cc3)ccc2=O)CC1
→ -2.6 | -0.3
CC(C)NC(=O)N(C)C[C@@H]1Oc2c(NS(=O)(=O)c3ccc(F)cc3)cccc2C(=O)N([C@H](C)CO)C[C@@H]1C
→ 3.9 | ·
O=C(Nc1ccccc1C(=O)O)c1ccc(CN2CCOCC2)cc1
→ 8.6 | -4.0
CCOC(=O)Cc1c(SC)c2ccccc2n1C
→ 0.5 | 0.2
COc1ccc(S(=O)(=O)Nc2ccc3c(c2)C(=O)N([C@H](C)CO)C[C@@H](C)[C@H](CN(C)Cc2ccc(Cl)c(Cl)c2)O3)cc1
→ -3.4 | 1.8
Cn1nc(C(=O)N2CCOCC2)cc1C(=O)N1CCOCC1
→ -1.9 | 1.2
Cc1ccc(S(=O)(=O)N(C)C[C@@H]2Oc3ccc(NC(=O)Cc4cn(C)c5ccccc45)cc3C(=O)N([C@H](C)CO)C[C@@H]2C)cc1
→ -1.1 | -0.4
C[C@H]1CN([C@@H](C)CO)C(=O)c2cccc(NS(=O)(=O)c3ccc(F)cc3)c2O[C@@H]1CN(C)Cc1ccncc1
→ 0.0 | ·
COc1cc(SC)ccc1C(=O)NC(C)C
→ 2.8 | 0.9
C[C@@H]1CN([C@@H](C)CO)C(=O)c2cc(NS(=O)(=O)c3ccc(F)cc3)ccc2O[C@@H]1CN(C)C(=O)Nc1ccc2c(c1)OCO2
→ -1.8 | -0.6
Cc1cccc(C(=O)NN(c2ccccc2)c2ccccc2)c1
→ -7.6 | -0.9
Cc1noc(C)c1S(=O)(=O)Nc1cccc2c1O[C@@H](CN(C)CC1CCCCC1)[C@@H](C)CN([C@H](C)CO)C2=O
→ 1.4 | ·
CNC[C@@H]1Oc2c(NS(=O)(=O)c3cccs3)cccc2C(=O)N([C@@H](C)CO)C[C@@H]1C
→ 0.5 | ·
CC(=O)N1CCN(CC(O)COc2ccc(C)cc2)CC1 (stereo not given)
→ -1.4 | 0.7
C[C@@H]1CN([C@@H](C)CO)C(=O)c2cc(NS(=O)(=O)c3cccs3)ccc2O[C@H]1CN(C)Cc1ccc(Cl)c(Cl)c1
→ 3.1 | -0.4
CC(NC(=O)/C=C/C(=O)O)C(=O)NC(C(=O)NC(Cc1c[nH]c2ccccc12)C(=O)O)C(C)c1c[nH]c2ccccc12 (stereo not given)
→ -5.8 | 0.3

(listing goes on)
structure | BJeLR viability | A1 inh
O=C(CCCn1sc2ccccc2c1=O)NC1CCCc2ccccc21 (stereo not given) | 1.8 | 0.1
N=C(N)SCCc1ccc(OCc2ccc([N+](=O)[O-])cc2)cc1 | -0.5 | -1.0
COc1ccc(CN(C)C[C@H]2Oc3ccc(NC(=O)Nc4ccc(C(F)(F)F)cc4)cc3C(=O)N([C@H](C)CO)C[C@@H]2C)cc1 | -0.7 | 1.4
COc1cccc(NC(=O)Cn2c3ccccc3c3nc(=O)cc(C)n32)c1 | -2.4 | 1.2
Cc1noc(C)c1NC(=O)N(C)C[C@H]1Oc2ccc(NS(=O)(=O)c3cn(C)cn3)cc2C(=O)N([C@H](C)CO)C[C@@H]1C | 1.5 | 0.8
COC(=O)c1sc(=S)n(C)c1C | -12.0 | 0.1
C[C@@H]1CN([C@H](C)CO)C(=O)c2cc(NC(=O)Nc3ccc(C(F)(F)F)cc3)ccc2O[C@@H]1CN(C)Cc1ccc(C(=O)Nc2ccccc2N)cc1 | 5.1 | ·
CCOC(=O)c1cnc(N2CCOCC2)nc1N | 9.9 | -6.1
COc1ccc(NC(=O)Nc2ccc3c(c2)C(=O)N([C@H](C)CO)C[C@@H](C)[C@@H](CN(C)Cc2ccc(Cl)c(Cl)c2)O3)cc1 | 0.5 | -0.3
CC(=O)N(Cc1ccccc1)c1ccccn1 | -7.3 | -0.5
CC(Oc1ccccc1)C(=O)NC1CCCC1 (stereo not given) | 2.9 | 0.5
O=c1c(-c2ccccc2)coc2cc(OCc3ccccc3F)ccc12 | -0.3 | -4.3
O=S(=O)(Cc1ccccc1)/C1=C(\N2CCOCC2)CCCCCC1 | 1.8 | 0.3
O=C(OCCCN1C(=O)c2ccccc2C1=O)c1ccc(Cl)cc1Cl | -3.6 | 1.3
O=C(CSc1ccc(-c2cccnc2)nn1)c1ccc(F)cc1 | 6.3 | -1.1
CCOC(=O)c1cc(S(=O)(=O)N2CCCC2)cn1C | 13.0 | -0.1
CCN(CC)CCNc1c2c(c(C#N)c3nc4ccccc4n13)CCCC2 | 1.7 | ·
Cc1cccc(C)c1NC(=O)CN1CCN(CCCC(c2ccc(F)cc2)c2ccc(F)cc2)CC1 | 2.3 | 0.2
C[C@H](CO)N1C[C@H](C)[C@H](CN(C)S(=O)(=O)c2ccccc2)Oc2ccc(NS(=O)(=O)c3ccc(F)cc3)cc2C1=O | 0.2 | 1.3
Cc1noc(C)c1S(=O)(=O)N(C)C[C@@H]1Oc2c(NS(=O)(=O)c3ccc(F)cc3)cccc2C(=O)N([C@H](C)CO)C[C@@H]1C | 0.7 | ·

Other records follow:
structure | BJeLR viability | A1 inh
CC1(C)OC(=O)C(=Cc2cccn2-c2ccc(C(F)(F)F)cc2)C(=O)O1 | -1.7 | 0.7
COc1cc2c(C(=O)N3CCCCC3C)cn(C)c(=O)c2cc1OC (stereo not given) | -0.4 | ·
CN(Cc1ccccc1)C(=O)CCc1ccccc1 | 2.3 | 0.4
O=C1/C(=C/c2ccc(-c3nn[nH]n3)cc2)C(c2ccccc2)Oc2ccccc21 (stereo not given) | 4.4 | 1.5
COc1ccc(NC(=O)N(C)C[C@@H]2Oc3ccc(NS(=O)(=O)c4ccccc4)cc3C(=O)N([C@@H](C)CO)C[C@H]2C)cc1 | -0.2 | 0.7
C[C@H]1CN([C@@H](C)CO)C(=O)c2cc(NC(=O)Cn3cnnn3)ccc2O[C@@H]1CN(C)C(=O)Nc1cccc2ccccc12 | -10.0 | -0.1
O=C(Nc1ccc2nn(-c3ccccc3)nc2c1)C(F)(F)F | -3.6 | -5.2
Nc1cccc(C2OCCCO2)c1 | -2.9 | 1.1
Cc1ncc(NS(=O)(=O)c2ccc(NC(=O)NC3CCCCC3)cc2)c(C)n1 | -5.3 | -1.7
C[C@H](CO)N1C[C@H](C)[C@H](CN(C)S(=O)(=O)c2cn(C)cn2)Oc2c(NC(=O)C3CCOCC3)cccc2C1=O | -2.1 | ·
COc1cc2c(ccc3cc(OC)c(OC)c(O)c32)cc1O | 0.9 | -0.1
O=C(CCc1nc2cccnc2n1Cc1ccccc1)N1CCCCC1 | 0.4 | ·
c1ccc(-c2ccnc(-c3cc(-c4ccccc4)ccn3)c2)cc1 | -5.8 | -0.5
COc1ccc(NC(=O)N(C)C[C@H]2Oc3ccc(NS(=O)(=O)c4ccc(F)cc4)cc3C(=O)N([C@@H](C)CO)C[C@H]2C)cc1 | -7.5 | 0.0
COc1cccc2c1OC1=C(C(=O)CC(C)(C)C1)C2CC(=O)c1ccc(O)cc1 (stereo not given) | 1.6 | -1.6
COc1ccc(S(=O)(=O)Nc2cccc3c2O[C@H](CN(C)S(=O)(=O)c2c(C)noc2C)[C@@H](C)CN([C@@H](C)CO)C3=O)cc1 | -4.7 | ·
C[C@@H]1CN([C@H](C)CO)C(=O)c2cc(NC(=O)CCCCCC(=O)Nc3ccccc3N)ccc2O[C@@H]1CN(C)Cc1ccccc1 | -1.5 | ·
Cc1ccc(C2=N/C(=C\c3ccco3)C(=O)O2)cc1 | 2.8 | ·
Cc1cccc(-n2ncc3c2ncn2nc(COc4c(C)cccc4C)nc32)c1 | 4.5 | 0.5
Cc1cc(C(=O)NCC2COc3ccccc3O2)nn1C (stereo not given) | 0.0 | -0.2

An excerpt of these results, as labelled records.
> COc1cc(SC)ccc1C(=O)NC(C)C
  BJeLR viability: 2.8
  A1 inh: 0.9
> C[C@@H]1CN([C@@H](C)CO)C(=O)c2cc(NS(=O)(=O)c3ccc(F)cc3)ccc2O[C@@H]1CN(C)C(=O)Nc1ccc2c(c1)OCO2
  BJeLR viability: -1.8
  A1 inh: -0.6
> Cc1cccc(C(=O)NN(c2ccccc2)c2ccccc2)c1
  BJeLR viability: -7.6
  A1 inh: -0.9
> Cc1noc(C)c1S(=O)(=O)Nc1cccc2c1O[C@@H](CN(C)CC1CCCCC1)[C@@H](C)CN([C@H](C)CO)C2=O
  BJeLR viability: 1.4
  A1 inh: ·

Next entries.
structure | BJeLR viability | A1 inh
COc1ccc(-c2nc3ccccc3s2)cc1 | 60.0* | -6.9
CNC[C@H]1Oc2ccc(NC(=O)c3ccncc3)cc2C(=O)N([C@@H](C)CO)C[C@@H]1C | -0.2 | 0.5
CS(=O)(=O)/C(C#N)=C/Nc1cnccn1 | -0.2 | -0.4
CCNC(=O)N1c2ccc(CC)cc2C(C)=CC1(C)C | 4.3 | 0.9
COc1ccc(NC(=O)Nc2cccc3c2O[C@@H](CN(C)C(=O)Nc2ccc(F)cc2)[C@H](C)CN([C@H](C)CO)C3=O)cc1 | -0.4 | ·
Cc1ccc(S(=O)(=O)N(C)C[C@H]2Oc3c(cccc3N(C)C)C(=O)N([C@H](C)CO)C[C@H]2C)cc1 | 1.2 | ·
Cc1noc(C)c1NC(=O)Nc1cccc2c1O[C@@H](CN(C)C(=O)NC1CCCCC1)[C@H](C)CN([C@@H](C)CO)C2=O | 0.8 | ·
C[C@H]1CN([C@@H](C)CO)C(=O)c2cc(NS(=O)(=O)c3ccccc3)ccc2O[C@@H]1CN(C)Cc1ccc2c(c1)OCO2 | 4.1 | 0.2
C[C@@H]1CN([C@@H](C)CO)C(=O)c2cccc(NC(=O)c3nc4ccccc4s3)c2O[C@@H]1CN(C)S(=O)(=O)c1cn(C)cn1 | 2.2 | ·
CCc1ccc2nc(N3CCC(C(=O)NCC4COc5ccccc5O4)CC3)sc2c1 (stereo not given) | 6.8 | ·
C[C@@H]1CN([C@H](C)CO)C(=O)c2cccc(NS(=O)(=O)c3cccs3)c2O[C@@H]1CN(C)Cc1ccccc1 | 1.2 | ·
C[C@@H]1CN([C@H](C)CO)C(=O)c2cc(NS(=O)(=O)c3ccc(F)cc3)ccc2O[C@@H]1CN(C)Cc1ccc(C(F)(F)F)cc1 | 1.4 | -0.1

3 compounds already listed, arranged by the number in A1 inh, rising:
Structure | A1 inh
CS(=O)(=O)/C(C#N)=C/Nc1cnccn1 | -0.4
CNC[C@H]1Oc2ccc(NC(=O)c3ccncc3)cc2C(=O)N([C@@H](C)CO)C[C@@H]1C | 0.5
CCNC(=O)N1c2ccc(CC)cc2C(C)=CC1(C)C | 0.9

Only part of the results is shown, so the mix of outcomes need not match the whole.
